# Compound activity: PubChem, National Center for Advancing Translational Sciences (NCATS)
# TRPV1 potentiator – human TRPV1 potentiation | Q8NER1 | TRPV1-expressing cells, Fluo-8 calcium influx, capsaicin EC20 potentiation; host cell line not named in the record; control for the full effect not named in the record | potentiation, % at 8.33 µM | 0.02% of 320,000 active | AID 540277; active means potentiation above 80%; inconclusive means 30% to 80%; inactive means below 30%; note: 0% is about no effect
#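 Cells expressing TRPV1 were dye-loaded with Fluo-8 and read kinetically: 10 s baseline, 3 min after compound (agonist portion), then 2 min after EC20 capsaicin (allosteric enhancer portion). Calcium-bound dye fluorescence at 480/520 nm.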
# PINK1 modulator – changes PINK1 expression; 0.2% of 410,000 active; Potency, µM (top dose mostly 76.6 µM), without a hit: at the highest dose activation (PINK1 increase), most hits filed as activators; PINK1 immunofluorescence, high-content cytometry, 24 h; active = well fitted activation curve with a large enough effect; inconclusive = small, poorly fitted or top-dose-only effect; inactive = flat fitted curve, though single readings scatter; cell line not stated here;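 note: potency is the fitted concentration of half-maximal effect; % of control where 0% means no effect; nearly all actives have a fitted effect of over 65% in size; a mitochondrial uncoupler was the plate control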
#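 Stable cell line treated 24 h with compounds at 5 concentrations (CCCP controls), then fixed and immunostained for PINK1 plus nuclear and cell stains; PINK1 immunofluorescence quantified by laser-scanning microplate cytometry.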
# D2 agonist – activates the human D2 dopamine receptor; AID 624465; DiscoveRx PathHunter D2 beta-arrestin, luminescence, 90 min; 100% = 57 uM dopamine signal; 0.084% of 360,000 active; activation, % (no concentration beside the values); P14416; in the data active = activation above about 40%; inconclusive = about 15% to 40%; inactive = below about 15%; note: compound concentration not given in the record; the text of the record calls up to 30% inactive
#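 Agonist mode: compounds alone added to overnight-plated D2 PathHunter cells for 90 min at 37 C, with 57 uM final dopamine (EC100) defining full response. Beta-arrestin recruitment detected by chemiluminescent reagent, read after 1 h at ambient temperature.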
# CtBP-E1A inh – blocks the CtBP interaction with E1A; AID 651724; AlphaScreen GST-E1A/His-CtBP binding, 1536-well; hits give low values; control for the full effect not named in the record; 0.49% of 340,000 active; activity change, % (no concentration beside the values); in the data active means activity change below about -65%; inconclusive means about -30% to -65%; inactive means above about -30%; note: % is set by controls: 0 for no effect and ±100 for the full control effect; compound concentration not given in the record
#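 Steps: dispense buffer (Tris pH 8.0, NaCl 300 mM, TCEP 1 mM, BSA, Tween 20); add 5X protein mix (GST-E1A, His-CtBP, 125 nM each); pin 23 nL compound; 2 h at 37 °C, dark; add 5X beads (50 ug/mL); 1 h; read.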
# Six1-Eya2 blk – Six1/Eya2 interaction inhibition | Q15475+O00167 | AlphaScreen GST-Six1/His-Eya2 binding, biochemical; hits give low values; control for the full effect not named in the record | activity change, % (concentration not given with the values) | 0.56% of 360,000 active | AID 651725; in the data active = activity change below about -65%; inconclusive = about -30% to -65%; inactive = above about -30%; note: % is set by controls: 0 for no effect and ±100 for the full control effect
# Target sequence (O00167 whole entry, looked up): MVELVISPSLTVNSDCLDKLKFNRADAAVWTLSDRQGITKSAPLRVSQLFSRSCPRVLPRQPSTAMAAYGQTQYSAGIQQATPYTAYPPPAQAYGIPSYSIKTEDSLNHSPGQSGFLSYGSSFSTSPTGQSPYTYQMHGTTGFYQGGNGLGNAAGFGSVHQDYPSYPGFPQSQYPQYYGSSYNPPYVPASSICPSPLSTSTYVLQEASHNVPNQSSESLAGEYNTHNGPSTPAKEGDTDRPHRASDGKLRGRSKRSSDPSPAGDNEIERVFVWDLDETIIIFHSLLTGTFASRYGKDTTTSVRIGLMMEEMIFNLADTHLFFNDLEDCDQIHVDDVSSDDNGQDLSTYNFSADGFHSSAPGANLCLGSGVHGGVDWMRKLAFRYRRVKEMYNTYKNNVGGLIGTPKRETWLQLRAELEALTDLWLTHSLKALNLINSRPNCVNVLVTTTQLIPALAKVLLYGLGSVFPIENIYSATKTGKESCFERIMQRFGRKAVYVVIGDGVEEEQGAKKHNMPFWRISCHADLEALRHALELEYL
# Target sequence (Q15475 whole entry, looked up): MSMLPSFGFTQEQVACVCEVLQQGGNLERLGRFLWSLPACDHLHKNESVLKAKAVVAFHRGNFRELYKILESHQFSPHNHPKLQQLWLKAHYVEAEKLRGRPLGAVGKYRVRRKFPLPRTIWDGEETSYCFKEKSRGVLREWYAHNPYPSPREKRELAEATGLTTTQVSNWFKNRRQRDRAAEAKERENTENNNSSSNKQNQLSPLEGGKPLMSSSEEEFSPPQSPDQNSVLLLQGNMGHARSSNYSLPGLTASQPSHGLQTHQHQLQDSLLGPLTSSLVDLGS
#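 Homogeneous AlphaScreen proximity assay pairing GST-Six1 with His-tagged Eya2 (added as 5X mix: 250 nM and 500 nM) in 50 mM Tris pH 8.0, 300 mM NaCl, 1 mM TCEP. Glutathione donor and nickel acceptor beads; 1 h, 37 °C, dark.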
# Sfp inh – blocks B. subtilis Sfp PPTase activity; Potency, µM, without a hit: max response, negative = inhibition, actives largely listed as inhibitors; Biochemical Sfp PPTase activity, qHTS; 3.5% of 310,000 active; active = well fitted inhibition curve with a large enough effect; inconclusive = small, poorly fitted or top-dose-only effect, or another doubt; inactive = no such curve, though single readings can be large or run the other way;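 note: the enzyme is Sfp with the accession as filed and its product quenches rhodamine fluorescence; potency is the fitted concentration of half-maximal effect; 0% = enzyme reaction without inhibitor and -100% = no enzyme wells; top concentration of the series not given in the record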
#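 Fluorescence-quenching assay: 15 nM Sfp-PPTase preincubated 15 min at room temperature with compound, then 5 uM rhodamine-CoA and 12.5 uM BHQ-2-labelled YbbR peptide added. Fluorescence (ex 525/em 598 nm) read at start and after 30 min; difference gives rate.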
# D2 potentiator – positive allosteric modulators of human D2 dopamine receptor; P14416; DiscoveRx D2 beta-arrestin cells, luminescence, 90 min; 100% = 57 uM dopamine signal; potentiation, % (concentration not given with the values); 0.23% of 360,000 active; active = potentiation of 50% or more; inconclusive = 30% to 50%; inactive = 30% or less;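 note: compound concentration not given in the record; tested on top of an EC20 dose of dopamine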
#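 PathHunter D2 cells, attached overnight at 37 deg C, received compound in DMSO plus dopamine at EC20 (50 nM final) for 90 min at 37 deg C. Beta-arrestin recruitment was read as luminescence after 1 h with detection reagent at ambient temperature.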
# The depositor's hits bear a star; ? = inconclusive; · = no result given; & = joins results of further samples; [ ] = remark or other dose.
# The opening 15 compounds as a preview:
no.	Molecule	TRPV1 potentiator	PINK1 modulator	D2 agonist	CtBP-E1A inh	Six1-Eya2 blk	Sfp inh	D2 potentiator
1	CSCCC(NC(=O)OCc1ccccc1)C(=O)O (centres undefined)	13	1.0%	-1.2	9	9	16%	1
2	Cc1ccc(NC(=O)C2Oc3ccccc3OC2C)cc1 (centres undefined)	-16	3.2%	3.0	·	4	12%	11
3	CC(C)c1ccc(N(C(=O)c2ccc3c(c2)OCO3)C2C=CS(=O)(=O)C2)cc1 (centres undefined)	14	-0.7%	-1.6	4	2	3%	-7
4	Cc1ccc(CC(=O)Nc2ccc(F)c([N+](=O)[O-])c2)cc1C	-9	-2.7%	-3.5	·	3	16%	-9
5	O=C(NC1CCCC1)c1cc(=O)[nH]c2ccccc12	-7	0.2%	-5.8	·	-2	6%	17
6	Cc1nc(N2CCOCC2)nc(OCCN2CCOCC2)c1[N+](=O)[O-]	-1	-0.6%	-4.9	2	6	2%	-6
7	C=C(C)C(=O)N1CC2(CC(c3cccc(NC(=O)/C=C\C=C/C)c3)=NO2)C[C@H]1C(N)=O (some centres undefined)	13	1.2%	-0.6	2	-19	20µM*	3
8	CSc1ccccc1C(=O)N1CCCC(CCC(=O)NCc2ccc(F)c(F)c2)C1 (centres undefined)	2	1.0%	-2.9	0	25	9%	-15
9	COc1ccc(/C=C2\C(=O)ON=C2c2ccccc2)cc1	3	-0.8%	-2.0	-1	0	40µM*	-7
10	Cc1nc(C)c(NC(=O)N2CCc3ccccc32)cc1NC(=O)N1CCc2ccccc21	0	5.2%	-1.8	-17	?	16%	-10
11	CC(C)[C@H](NC(=O)N1CC(=O)Nc2ccccc21)C(=O)N[C@H](Cc1c[nH]c2ccccc12)C(=O)O	-4	0.8%	-6.4	6	7	8%	-31
12	O=C(COc1ccccc1[N+](=O)[O-])N1CCN(c2ccccn2)CC1	-6	3.8%	1.9	4	6	·	-5
13	CN1CCN(c2nc(-c3ccccc3)nc3c2oc2ccccc23)CC1	-18	-1.4%	-2.6	-2	7	23%	-19
14	CCOc1ccc(C(=O)CC(=O)C(=O)NCCc2ccc(OC)c(OC)c2)cc1	1	1.3%	-3.7	-7	0	4%	-7
15	CNc1oc(Cc2cccc3ccccc23)nc1C#N	-10	?	3.6	-4	-11	9%	-6

# Main list (from the top)
no.	Molecule	TRPV1 potentiator	PINK1 modulator	D2 agonist	CtBP-E1A inh	Six1-Eya2 blk	Sfp inh	D2 potentiator
1	CSCCC(NC(=O)OCc1ccccc1)C(=O)O (centres undefined)	13	1.0%	-1.2	9	9	16%	1
2	Cc1ccc(NC(=O)C2Oc3ccccc3OC2C)cc1 (centres undefined)	-16	3.2%	3.0	·	4	12%	11
3	CC(C)c1ccc(N(C(=O)c2ccc3c(c2)OCO3)C2C=CS(=O)(=O)C2)cc1 (centres undefined)	14	-0.7%	-1.6	4	2	3%	-7
4	Cc1ccc(CC(=O)Nc2ccc(F)c([N+](=O)[O-])c2)cc1C	-9	-2.7%	-3.5	·	3	16%	-9
5	O=C(NC1CCCC1)c1cc(=O)[nH]c2ccccc12	-7	0.2%	-5.8	·	-2	6%	17
6	Cc1nc(N2CCOCC2)nc(OCCN2CCOCC2)c1[N+](=O)[O-]	-1	-0.6%	-4.9	2	6	2%	-6
7	C=C(C)C(=O)N1CC2(CC(c3cccc(NC(=O)/C=C\C=C/C)c3)=NO2)C[C@H]1C(N)=O (some centres undefined)	13	1.2%	-0.6	2	-19	20µM*	3
8	CSc1ccccc1C(=O)N1CCCC(CCC(=O)NCc2ccc(F)c(F)c2)C1 (centres undefined)	2	1.0%	-2.9	0	25	9%	-15
9	COc1ccc(/C=C2\C(=O)ON=C2c2ccccc2)cc1	3	-0.8%	-2.0	-1	0	40µM*	-7
10	Cc1nc(C)c(NC(=O)N2CCc3ccccc32)cc1NC(=O)N1CCc2ccccc21	0	5.2%	-1.8	-17	?	16%	-10
11	CC(C)[C@H](NC(=O)N1CC(=O)Nc2ccccc21)C(=O)N[C@H](Cc1c[nH]c2ccccc12)C(=O)O	-4	0.8%	-6.4	6	7	8%	-31
12	O=C(COc1ccccc1[N+](=O)[O-])N1CCN(c2ccccn2)CC1	-6	3.8%	1.9	4	6	·	-5
13	CN1CCN(c2nc(-c3ccccc3)nc3c2oc2ccccc23)CC1	-18	-1.4%	-2.6	-2	7	23%	-19
14	CCOc1ccc(C(=O)CC(=O)C(=O)NCCc2ccc(OC)c(OC)c2)cc1	1	1.3%	-3.7	-7	0	4%	-7
15	CNc1oc(Cc2cccc3ccccc23)nc1C#N	-10	?	3.6	-4	-11	9%	-6
16	Cc1ccc(N2C(=O)c3ccccc3C2(O)c2ccccc2)cc1 (centres undefined)	·	-1.9%	1.1	9	6	·	-7
17	CCNC(=O)/C(C#N)=C/c1c(N2CCOCC2)nc2ccccn2c1=O	8	-1.5%	-3.5	·	0	-7%	-3
18	Cc1ccc(N2C(=O)CSC2c2cccnc2)cc1F (centres undefined)	4	2.1%[38.3 µM]	-1.8	2	1	5%	0
19	CCc1cc(C=NC2CCCCC2)c(O)s1	0	0.9%	-4.9	-9	-22	-20%	-8
20	CC(C)CCN1CCN(Cc2ccoc2)CC1CCO (centres undefined)	2	0.2%	-7.0	-6	0	17%	-29
21	CCC(Oc1ccccc1F)C(=O)NCCN1CCOCC1 (centres undefined)	-5	3.0%	-2.2	0	-3	14%	-5
22	COc1ccccc1C(=O)NNC(=O)c1ccc(Cl)cc1	-4	-1.0%	4.4	1	4	10%	-10
23	CN1C(=O)CC(Sc2ncccc2C(=O)O)C1=O (centres undefined)	9	-1.0%[38.3 µM]	-1.0	6	1	0%	-12
24	Cc1ccccc1OCc1nnc(SCC(=O)Nc2ccc(N3CCOCC3)cc2)n1C	-4	7.9%	1.4	-21	-9	9%	-2
25	CC(C)CCN1C(Nc2ccccc2)=NC[C@@H]1Cc1ccccc1	10	3.1%	-2.5	6	1	10%	-13
26	CCOC(=O)c1nnn(-c2nonc2N)c1COc1ccccc1	1	-1.4%	-2.0	-2	4	5%	7
27	O=S(=O)(NCC(c1ccc2c(c1)OCO2)N1CCOCC1)c1ccccc1 (centres undefined)	-9	-2.5%	-1.2	3	9	·	3
28	O=c1[nH]c2ccc(Cl)cc2c(O)c1Cc1ccccc1	0	1.6%	3.4	·	-4	50µM*	-6
29	CCNS(=O)(=O)c1ccc(-c2ccc(-n3cnnn3)cc2)cc1	5	0.6%	2.6	-15	4	18%	-2
30	COc1cc(CC(=O)NCc2ccc3c(c2)OCO3)cc(OC)c1OC	7	-2.1%	1.7	1	3	-4%	-13
31	CCOC(=O)C1CCN(C(=O)COc2cccc3ccccc23)CC1	-24	-0.9%	-2.1	9	7	19%	5
32	COc1cc(/C=C(\C#N)C(=O)NC2CCCCC2C)ccc1OS(=O)(=O)c1ccc(C)cc1 (centres undefined)	9	-0.8%	0.0	0	9	6%	?
33	Cc1ccc(NC2CCCN(C(=O)CCn3nccc3C)C2)cc1C (centres undefined)	?	-0.5%	1.6	4	1	-9%	-10
34	COCCCNC(=O)C[C@H]1C[C@H](C(=O)N(C(C)C)C(C)C)[C@@]2(C)c3[nH]c4cc(CCC(=O)N(C)C)ccc4c3CCN2C1=O	·	-0.4%	-0.4	-13	1	·	-1
35	O=S(=O)(c1ccccc1)N1CCc2ccccc21	·	3.2%	-1.7	5	6	·	-5
36	C(=C/c1nccc2c1[nH]c1ccccc12)/c1ccc2c(c1)OCO2	2	2.8%&12%	2.6	31	30	-27%	-39
37	COc1ccc(CCC(=O)Nc2nc3c(s2)CN(C)CC3)cc1OC	4	-2.4%	-2.3	2	-1	15%	-11
38	Cc1cccc(N(C(=O)c2csnn2)C(C(=O)NC(C)(C)C)c2ccncc2)c1 (centres undefined)	-15	-0.7%[38.3 µM]	-0.3	7	5	8%	-1
39	O=C(COC(=O)CCc1nc2ccccc2n1-c1ccccc1)Nc1cccc(Cl)c1	1	15%	-2.3	8	-25	6%	-19
40	COc1ccc(CCNC(=O)CCS(=O)(=O)c2ccc3c(c2)CCN3C(C)=O)cc1OC	-3	0.0%	0.7	3	6	8%	8
41	Cn1c(N)c(C(=O)COC(=O)C2CCCC2)c(=O)n(C)c1=O	-1	-1.1%	-0.3	2	-2	18%	0
42	O=C1NC[C@H](Cc2ccccc2)N(C[C@H]2CCCN2C[C@H](Cc2ccccc2)N2C[C@H](Cc3ccccc3)N(CC3CCCCC3)C(=O)C2=O)C1=O	·	1.1%	0.1	-10	-5	·	-10
43	O=C(NCCN1CCOCC1)c1csc2c1CCCCC2	0	0.2%[38.3 µM]	2.8	8	-1	16%	-26
44	COc1cccc(NC(=O)COC(=O)C2=NN(c3ccccc3)C(=O)CC2)c1	·	-0.6%	0.1	7	8	·	-20
45	CC(=O)Nc1ccc(NC(=O)CSc2nnc(NC(=O)C3CC(=O)N(c4ccc(F)cc4)C3)s2)cc1 (centres undefined)	3	0.6%	-5.5	-4	0	12%	-1
46	O=C(O)c1cn(C2CC2)c2cc(N3CCN(S(=O)(=O)c4ccc5c(c4)OCCO5)CC3)c(F)cc2c1=O	?	?	2.4	-5	-4	10%	-19
47	CCOC(=O)c1nnc(-c2ccccc2)nc1NC	-23	-2.7%	0.4	-23	-16	13%	-1
48	CC(C)C1N(C(=O)CN2CCCC2)CCN1S(=O)(=O)c1ccccc1 (centres undefined)	-11	-0.4%	-0.1	-6	-1	10%	-8
49	CCn1nc(NC(=O)C2CCCO2)c2cc3cc(C)ccc3nc21 (centres undefined)	-11	2.5%	-1.9	16	17	16%	-1
50	CCOC(=O)/C=c1\s/c(=C\c2ccc(C#N)cc2)c(=O)n1CC(=O)Nc1cccc(C)c1C	-4	7.6%	-5.7	2	2	5%	0
51	Fc1ccccc1/C=N/n1cc(-c2ccccc2)[nH]c1=S	4	3.0%	-7.1	-23	-21	89µM*	-21
